Vaccinia mCherry – vaccinia inhibition (mCherry reporter); AID 720579; hit rate 0.63% among 310,000; Vaccinia virus mCherry reporter infection, fluorescence; about a quarter of the inactives have no number; Potency, µM (titrated, usually from 36.5 µM), without a hit: at the top dose activity change, negative = inhibition, most hits filed as inhibitors; active = well fitted inhibition curve with a large enough effect; inconclusive = small, poorly fitted or top-dose-only effect; inactive = no such curve, though single readings can be large or run the other way; tested in A549 cells; also: nearly all actives have a fitted effect of over 35% in size; inactives centre near -10
VACV Venus inh – vaccinia inhibition (Venus reporter); hit rate 0.46% among 330,000; Potency, µM (series often up to 36.5 µM), without a hit: at the top dose activity change, negative = inhibition, actives largely listed as inhibitors; Vaccinia virus Venus reporter expression, fluorescence; AID 720580; active means well fitted inhibition curve with a large enough effect; inconclusive means small, poorly fitted or top-dose-only effect; inactive means no such curve, though single readings can be large or run the other way; tested in A549 cells; also: nearly all actives have a fitted effect of over 30% in size; inactives centre near -10
* hit, by the source's call; [ ] = dose if it differs, or a comment. % is scaled to controls: 0 for no effect and ±100 for the full control effect; potency is read from the fitted curve at half-maximal effect. Hits appear at their usual frequency; 0.82% or so of the library scored in one or more.

Results for COc1ccc(-n2ccnc2SCC(=O)NCc2ccc(F)cc2)c(OC)c1 ?
Vaccinia mCherry: -2%; VACV Venus inh: -23%

Results for Cc1ccccc1NC(=O)CN1C(=O)NC(C)(c2ccc3c(c2)OCO3)C1=O (stereo unspecified) ?
VACV Venus inh: -5%

What do the screens show for `O=C(N/C(=C\c1ccc(Br)cc1)C(=O)N1CCOCC1)c1ccc(Br)o1`?
Vaccinia mCherry: -10%; VACV Venus inh: -19%

Results for COc1ccc2cc(Br)ccc2c1CC(=O)NCCCN1CCOCC1 ?
Vaccinia mCherry: -4%; VACV Venus inh: -10%

What do the screens show for `CCCCn1c(=O)c(CCC(=O)OCC(=O)NC(=O)NCCOC)nc2ccccc21`?
Vaccinia mCherry: -3%; VACV Venus inh: -17%

Results for Cc1cc(C(=O)NCCc2ccccc2)ccc1[N+](=O)[O-] ?
Vaccinia mCherry: -9%; VACV Venus inh: -18%

What do the screens show for `COc1ccccc1CNC(=O)Cn1nc(C)c2nn(-c3ccc(Cl)cc3)c(C)c2c1=O`?
Vaccinia mCherry: -14%; VACV Venus inh: -23%

Results for Cc1ccc(C)c(NS(=O)(=O)c2cc(C(=O)NCc3ccccn3)ccc2Cl)c1 ?
Vaccinia mCherry: 0%; VACV Venus inh: -20%

How did CCCCNc1c(-c2ccc(SC(C)CC)c(OC)c2)nc2ccc(C)cn12 (stereo unspecified) do in these assays?
Vaccinia mCherry: inconclusive; VACV Venus inh: inconclusive

How did O=C(c1ccccc1)C1CC=CCC1C(=O)c1ccccc1 (stereo unspecified) do in these assays?
Vaccinia mCherry: inconclusive; VACV Venus inh: -22%

How did O=C(CCl)NC(=O)NC12CC3CC(CC(C3)C1)C2 do in these assays?
Vaccinia mCherry: inactive; VACV Venus inh: -6%

What do the screens show for `CCCCCSc1cc(OC)c(CCNC)cc1OC`?
VACV Venus inh: inconclusive

Grouped by structure: the compounds so far with four or more nitrogen atoms (2)
What do the screens show for `CCCCn1c(=O)c(CCC(=O)OCC(=O)NC(=O)NCCOC)nc2ccccc21`?
Vaccinia mCherry: -3%; VACV Venus inh: -17%

What do the screens show for `COc1ccccc1CNC(=O)Cn1nc(C)c2nn(-c3ccc(Cl)cc3)c(C)c2c1=O`?
Vaccinia mCherry: -14%; VACV Venus inh: -23%

The main list resumes; the two compounds before the break are reprinted first.
How did O=C(CCl)NC(=O)NC12CC3CC(CC(C3)C1)C2 do in these assays?
Vaccinia mCherry: inactive; VACV Venus inh: -6%

What do the screens show for `CCCCCSc1cc(OC)c(CCNC)cc1OC`?
VACV Venus inh: inconclusive

What do the screens show for `C/C(=N/NC(=O)C1COc2ccccc2O1)c1ccco1` (stereo unspecified)?
Vaccinia mCherry: -11%; VACV Venus inh: -10%

Results for Cc1ccccc1C(=O)NC(C)c1nnc2n1CCN(Cc1ccnc3ccccc13)CC2 (stereo unspecified) ?
Vaccinia mCherry: -14%; VACV Venus inh: -2%

How did COc1ccccc1NC(=O)CCc1nc2ccccc2s1 do in these assays?
Vaccinia mCherry: -9%; VACV Venus inh: -1%

Results for CC1=C(C(=O)N(C(C)C)C(C)C)CC(CC(=O)NCCCN(C)C)C(=O)N1CCCN1CCCC1=O (stereo unspecified) ?
Vaccinia mCherry: 11%; VACV Venus inh: 10%

Results for CCOC(=O)C1(C)CCN1C(=O)c1ccco1 (stereo unspecified) ?
Vaccinia mCherry: 8%; VACV Venus inh: 4%

How did CC1CCc2c(sc(/N=C/N(C)C)c2C#N)C1 (stereo unspecified) do in these assays?
Vaccinia mCherry: -8%; VACV Venus inh: -6%

Results for Cn1c(NN=O)nc2ccccc21 ?
Vaccinia mCherry: inconclusive; VACV Venus inh: inconclusive

Results for CC(C)c1ccc(NC(=O)C2CC3CCC2C3)cc1 (stereo unspecified) ?
Vaccinia mCherry: inactive; VACV Venus inh: -13%

What do the screens show for `O=C(Nc1cccc(S(=O)(=O)C(F)F)c1)c1ccc(S(=O)(=O)N2CCOCC2)cc1`?
Vaccinia mCherry: 5%; VACV Venus inh: -14%

How did CC(C)(C)c1ccc(C(=O)NCC(=O)N/N=C/c2ccccc2OCC(=O)O)cc1 do in these assays?
Vaccinia mCherry: -13%; VACV Venus inh: -4%

How did CCn1cc(C(=O)N2CCN(c3ccccc3)CC2)c(=O)c2cc(S(=O)(=O)N3CCC(C)CC3)ccc21 do in these assays?
Vaccinia mCherry: -2%; VACV Venus inh: -16%

Results for Cc1ccc(-c2nc3ccc(Br)cn3c2Nc2ccc3c(c2)OCO3)o1 ?
Vaccinia mCherry: -5%; VACV Venus inh: 2%

5 entries picked at random from those above:
How did CC1CCc2c(sc(/N=C/N(C)C)c2C#N)C1 (stereo unspecified) do in these assays?
Vaccinia mCherry: -8%; VACV Venus inh: -6%

How did CCn1cc(C(=O)N2CCN(c3ccccc3)CC2)c(=O)c2cc(S(=O)(=O)N3CCC(C)CC3)ccc21 do in these assays?
Vaccinia mCherry: -2%; VACV Venus inh: -16%

Results for CCOC(=O)C1(C)CCN1C(=O)c1ccco1 (stereo unspecified) ?
Vaccinia mCherry: 8%; VACV Venus inh: 4%

Results for CC1=C(C(=O)N(C(C)C)C(C)C)CC(CC(=O)NCCCN(C)C)C(=O)N1CCCN1CCCC1=O (stereo unspecified) ?
Vaccinia mCherry: 11%; VACV Venus inh: 10%

Results for CC(C)c1ccc(NC(=O)C2CC3CCC2C3)cc1 (stereo unspecified) ?
Vaccinia mCherry: inactive; VACV Venus inh: -13%

The listing continues:
How did O=C(CC[C@H]1O[C@@H](n2cnc3c(NC(=O)c4ccccc4)ncnc32)[C@H](O)[C@@H]1O)N[C@@H](CO)Cc1c[nH]c2ccccc12 do in these assays?
Vaccinia mCherry: 29%; VACV Venus inh: 7%

What do the screens show for `COc1ccc(CCNC(=O)c2cnn(-c3ccc(C)c(C)c3)c2NC(=O)c2ccco2)cc1OC`?
Vaccinia mCherry: -15%; VACV Venus inh: -11%

Results for COc1ccc(/C=C/CN2CCN(Cc3ccccc3)C(CCO)C2)cc1 (stereo unspecified) ?
Vaccinia mCherry: -42%; VACV Venus inh: -9%

What do the screens show for `OC(c1ccccc1)(c1ccccc1)C1CCNCC1`?
Vaccinia mCherry: inactive; VACV Venus inh: -15%

Results for CN1CCN(C(=O)Cn2ncc3c4ccccc4n(Cc4ccc(F)cc4)c3c2=O)CC1 ?
Vaccinia mCherry: -19%; VACV Venus inh: -14%

What do the screens show for `COc1ccc(-n2c(C)c(C(C)=O)c3cc(OC(=O)COc4ccccc4)ccc32)cc1`?
Vaccinia mCherry: -5%; VACV Venus inh: -9%

How did Cc1nc2ccc(NC(=O)c3ccc(S(=O)(=O)N(C)c4ccccc4)cc3)cc2s1 do in these assays?
Vaccinia mCherry: inconclusive; VACV Venus inh: inconclusive

What do the screens show for `COc1ccc(CCNC(=O)C/C(C)=N/NC(=O)C23CC4CC(CC(C4)C2)C3)cc1OC`?
Vaccinia mCherry: -11%; VACV Venus inh: -12%

What do the screens show for `CCOc1ccc(/C=N/N(C)c2ccccc2)cc1OC`?
VACV Venus inh: -30%

What do the screens show for `O=[N+]([O-])c1cc(C(F)(F)F)ccc1Oc1cccnc1[N+](=O)[O-]`?
Vaccinia mCherry: inconclusive; VACV Venus inh: inconclusive

How did Cc1ccc(OP(N)(=O)Oc2ccc(C)cc2)cc1 do in these assays?
Vaccinia mCherry: inactive; VACV Venus inh: -2%

Results for CCC[C@@H](CNC)NC[C@H](Cc1ccccc1)NCCCCc1ccccc1 ?
Vaccinia mCherry: inconclusive; VACV Venus inh: inconclusive

Results for O=C(c1ccc(Cl)cc1)c1cnc(-c2ccccc2)s1 ?
Vaccinia mCherry: inactive; VACV Venus inh: -14%

Results for Nc1nc2c(ncn2[C@@H]2O[C@H](CNCc3ccccc3)[C@@H](O)[C@H]2O)c(=O)[nH]1 ?
Vaccinia mCherry: 5%; VACV Venus inh: 2%

What do the screens show for `COCCn1c(=NC(=O)c2cc3ccccc3oc2=O)sc2cc(S(N)(=O)=O)ccc21`?
Vaccinia mCherry: -1%; VACV Venus inh: -19%

Results for COc1cccc(C=Nc2ccc(C)c(F)c2)c1O ?
Vaccinia mCherry: -11%; VACV Venus inh: 8%

Results for Cc1ccc(Cl)cc1N1CCN(C(=O)CN(c2ccccc2)S(=O)(=O)N(C)C)CC1 ?
Vaccinia mCherry: -25%; VACV Venus inh: -18%

What do the screens show for `COc1cc2c(cc1OC)C(c1cccs1)N(C(=O)c1cccc(S(=O)(=O)N(C)C)c1)CC2` (stereo unspecified)?
Vaccinia mCherry: inactive; VACV Venus inh: -21%

How did COc1ccc(NC(=O)/C(=C\c2ccc3c(c2)OCO3)NC(C)=O)cc1 do in these assays?
Vaccinia mCherry: inactive; VACV Venus inh: -14%

What do the screens show for `O=C(CCn1c(=O)sc2ccccc21)NCc1ccccc1`?
Vaccinia mCherry: inactive; VACV Venus inh: -17%

How did CN1OC[C@@H]2CN[C@H](c3cccc(-c4cc(Cl)cc(Cl)c4)c3)C[C@@H]21 do in these assays?
Vaccinia mCherry: inconclusive; VACV Venus inh: -18%

What do the screens show for `COC(=O)c1scc(C#N)c1N/N=C(\C#N)S(=O)(=O)c1ccc(Cl)cc1`?
Vaccinia mCherry: inactive[7.34 µM]; VACV Venus inh: -3%[7.34 µM]

What do the screens show for `Cc1ccccc1Nc1nc(N)nc(C)c1Br`?
Vaccinia mCherry: -5%; VACV Venus inh: -19%

How did Cc1cccc([C@@H]2[C@@H]3C(=O)N(Cc4ccccc4)C(=O)[C@@H]3[C@]3(Cc4ccc(Cl)cc4)C(=O)N(c4cccc(Cl)c4)C(=O)N23)c1 do in these assays?
Vaccinia mCherry: inactive; VACV Venus inh: -6%

How did CCOC(=O)/C=C1\SCC(=O)N1CC(=O)NCc1ccc(OC)c(OC)c1 do in these assays?
Vaccinia mCherry: -1%; VACV Venus inh: 9%

Results for Cc1ccc(-n2ncc(C(=O)N3CCN(C4CCCCC4)CC3)c2C2CCN(C(=O)OC(C)(C)C)CC2)cc1C ?
Vaccinia mCherry: -24%; VACV Venus inh: -22%

Results for O=C(Cn1cnc2ccc(Br)cc2c1=O)c1cccs1 ?
VACV Venus inh: -23%

What do the screens show for `O=C(Cn1cnc2ccccc2c1=O)c1cccs1`?
VACV Venus inh: -7%

How did O=C(NC1CCCc2ccccc21)c1cccnc1 (stereo unspecified) do in these assays?
Vaccinia mCherry: -22%; VACV Venus inh: -9%

Results for O=C(Cn1c(=O)c2cccn2c2ccc(F)cc21)NCCCN1CCN(c2ccccc2F)CC1 ?
Vaccinia mCherry: inactive; VACV Venus inh: -14%

What do the screens show for `O=C(Cn1c(=O)c2ccccc2n(CC(=O)Nc2ccc(F)cc2)c1=O)NCCc1ccccc1`?
Vaccinia mCherry: -12%; VACV Venus inh: -7%

Results for Cc1ccc(-c2nc(S(=O)(=O)c3ccc(F)cc3)c(SCC(=O)NCC3CCCO3)o2)cc1 (stereo unspecified) ?
Vaccinia mCherry: -7%; VACV Venus inh: -2%

Results for CN(C)c1ccc(/C=N/NC(=O)CCc2c[nH]c3ccccc23)cc1 ?
Vaccinia mCherry: -29%; VACV Venus inh: -21%

How did COc1ccc(/C=C/C(=O)NC(=S)NNC(=O)Cc2cccs2)cc1 do in these assays?
VACV Venus inh: inconclusive

Results for Nc1[nH]c(C(=O)c2ccccc2)c(-c2ccc(Cl)cc2)c1C(=O)NCCc1c[nH]c2ccccc12 ?
Vaccinia mCherry: -8%; VACV Venus inh: -17%

How did COC(=O)C1=C(O)/C(=C\c2ccc(CNC(=O)C(=O)Nc3ccc(C)c(C)c3)o2)N=C1C do in these assays?
VACV Venus inh: 11%

How did CCCC(=O)Nc1ccc2c(c1)nc(CCN1CCN(c3ccccn3)CC1)n2C do in these assays?
Vaccinia mCherry: inactive; VACV Venus inh: -19%

Results for Cn1nc(Cc2n[nH]c(=S)n2C)c2ccccc2c1=O ?
Vaccinia mCherry: inactive[7.34 µM]; VACV Venus inh: -7%[7.34 µM]

How did Cc1cccn2c(=O)nc(SCC(=O)NCc3ccco3)nc12 do in these assays?
Vaccinia mCherry: inactive; VACV Venus inh: -7%

How did CCOc1ccc(CCN2C(=O)C(=O)N([C@@H](CC(C)C)CN3CCC[C@H]3CN3C(=O)C(=O)NC[C@@H]3Cc3ccc(O)cc3)C[C@@H]2CC(C)C)cc1 do in these assays?
Vaccinia mCherry: -16%; VACV Venus inh: -19%

How did CC(C)CN(C(=O)COC(=O)CCC(=O)c1ccc(Cl)cc1)c1c(N)n(Cc2ccccc2)c(=O)[nH]c1=O do in these assays?
Vaccinia mCherry: -10%; VACV Venus inh: -11%

What do the screens show for `O=C(O)CCCCCNC(=O)c1ccccc1Br`?
Vaccinia mCherry: -9%; VACV Venus inh: 3%

Results for O=C(NCCN1CCCC1=O)C1CCC(=O)N(CCc2cccc(F)c2)C1 (stereo unspecified) ?
Vaccinia mCherry: -20%; VACV Venus inh: -7%

Results for CSc1ccc(CCNC(=O)c2ccc(-n3c(C)cc4c3CCCC4)cc2)cc1 ?
Vaccinia mCherry: inconclusive; VACV Venus inh: inconclusive

What do the screens show for `CN(C)S(=O)(=O)c1ccc(C(=O)NCc2nnc(SCC(=O)Nc3ccc(F)cc3)n2-c2ccc(F)cc2)cc1`?
Vaccinia mCherry: -21%; VACV Venus inh: -25%

How did COc1ccc(-c2noc(N3CCC(C(=O)Nc4ccccc4OC)CC3)n2)cc1 do in these assays?
Vaccinia mCherry: -3%; VACV Venus inh: -29%

How did N#CC1=C(S)N(c2ccccc2)C2(CCCCC2)NC1=O do in these assays?
Vaccinia mCherry: -15%; VACV Venus inh: -6%

How did COC(=O)c1ccc(NC(=O)C(C)Oc2ccccc2)cc1 (stereo unspecified) do in these assays?
VACV Venus inh: -9%

How did S=c1[nH]ncn1NCc1cccc(Br)c1 do in these assays?
Vaccinia mCherry: inactive[7.34 µM]; VACV Venus inh: 1%[7.34 µM]

Bioassay records (PubChem)
